Screening results as filed in PubChem.
YopH inh: inhibitors of Yersinia enterocolitica YopH tyrosine phosphatase; fluorescence Ex485/Em525; inhibition, %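 (about 10 µM by stock and volumes)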; 140,000 compounds, 0.16% hits;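 active = inhibition of 50% or more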;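 also: controls were vehicle for no effect and minimum signal wells for full effect; inactives centre near -20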
Arbovirus inh: blocks arbovirus infection | arbovirus infection cell-based antiviral screen | inhibition, % at 10 µM | 200,000 compounds, 0.37% hits | AID 1251;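 active = inhibition from about 30%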;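 also: bluetongue infection of BSR cells; cell survival read as ATP light after 72 h; 0% = infected wells without compound and 100% = uninfected wells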
Mtb betalactam: beta-lactam sensitization of Mtb H37Rv | 330,000 compounds, 0.27% hits | M. tuberculosis H37Rv growth with meropenem, percent inhibition; hits of this screen are not shown here | AID 434955 | inhibition, % at 25 µM;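 active = about 74% or more and at least 40 points above the plate without the antibiotic, then above 30% in a dose series; inconclusive = first-round hits that could not be retested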;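 also: growth measured after seven days incubation then overnight dye step; 0% = bacteria only wells and 100% = bacteria with antibiotic; twin plates without the antibiotic show which effects depend on it; some results filed as inactive read as strong as hits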
RecA intein inh: Mtb RecA intein splicing inhibition; AID 2221; cell-free RecA intein splicing, fluorescence; inhibition, %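 (about 9 µM by stock and volumes)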; 290,000 compounds, 0.75% hits; P9WHJ3; in the data active = inhibition above about 30%; inconclusive = no clear call, values can overlap the other calls;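 also: 0% = vehicle wells and 100% = reference inhibitor control wells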
Target sequence (P9WHJ3 whole entry, looked up): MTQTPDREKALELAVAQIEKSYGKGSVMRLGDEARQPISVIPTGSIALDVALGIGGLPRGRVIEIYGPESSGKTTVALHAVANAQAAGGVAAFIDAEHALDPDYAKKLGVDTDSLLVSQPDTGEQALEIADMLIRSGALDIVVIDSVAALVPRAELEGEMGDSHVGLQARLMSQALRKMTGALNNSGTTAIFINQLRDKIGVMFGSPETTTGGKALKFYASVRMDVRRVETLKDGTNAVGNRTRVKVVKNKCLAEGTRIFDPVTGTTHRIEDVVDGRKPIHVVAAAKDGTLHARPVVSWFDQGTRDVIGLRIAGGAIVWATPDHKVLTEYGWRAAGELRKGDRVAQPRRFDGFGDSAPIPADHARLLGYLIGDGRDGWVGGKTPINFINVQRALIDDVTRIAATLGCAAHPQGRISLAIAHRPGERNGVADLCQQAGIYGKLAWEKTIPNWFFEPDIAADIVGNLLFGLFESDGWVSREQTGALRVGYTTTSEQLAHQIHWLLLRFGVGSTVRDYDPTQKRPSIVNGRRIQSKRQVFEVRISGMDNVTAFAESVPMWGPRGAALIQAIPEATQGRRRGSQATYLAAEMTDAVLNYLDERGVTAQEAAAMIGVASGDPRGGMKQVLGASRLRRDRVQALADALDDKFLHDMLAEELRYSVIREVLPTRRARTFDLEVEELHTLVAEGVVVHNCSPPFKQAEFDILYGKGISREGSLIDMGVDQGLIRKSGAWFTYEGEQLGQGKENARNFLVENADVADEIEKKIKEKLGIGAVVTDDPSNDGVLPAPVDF
Mtb growth: M. tuberculosis H37Rv growth inhibitors, H37Rv strain (AID 1626) | M. tuberculosis H37Rv growth inhibition; higher % means a stronger effect | one-dose inhibition, % at 10 µM; IC50 in µM for titrated hits | 220,000 compounds, 0.95% hits;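 active = confirmed in a dose series; inconclusive = inhibition above 80% but not taken into the dose series; inactive = below 80% or under 30% at every dose of the series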;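 also: bacteria incubated seven days before Alamar blue readout; 0% = bacteria only wells and 100% = bacteria with antibiotic wells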
Arbovirus inh repeat: further read-out of Arbovirus inh, marked with its call; inhibition, %; measured here: 10K subset replicate screen; many hits read low in the repeat;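 first of two repeat runs on a subset; 0% = infected and 100% = uninfected wells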
* marks the source's active call; other numbers are inactive results; ? = inconclusive; . = no result given.

SMILES	YopH inh	Arbovirus inh	Mtb betalactam	RecA intein inh	Mtb growth	others
COc1ccc(C2C(C(=O)NCc3ccccn3)c3ccccc3C(=O)N2C)cc1OC (configuration not stated)	-61	-2	-8	-1.0	-9%	Arbovirus inh repeat=3
O=C(OCCN1CCCCC1)C1(c2ccccc2)CCCC1	.	3	-2	1.2	0%
COc1ccc(S(=O)(=O)NCc2cccnc2)cc1C(=O)NC1CCCCC1	.	.	-26	0.2	.
CCc1noc(C)c1C(=O)Oc1ccc(N(C)S(=O)(=O)c2ccccc2)cc1	.	.	-7	11	.
CCCCOc1ccc(C(=O)NCC(=O)NCC(c2ccc(OC)cc2)N2CCCC2)cc1 (configuration not stated)	.	.	2	-2.9	.
COc1cc(C)c(Br)cc1S(=O)(=O)NCCCN1CCOCC1	.	-8	-3	-2.4	0%
Cc1ccccc1NC(=S)NC1CCCC1	.	.	0	1.0	.
O=C(c1ccc(Cl)c([N+](=O)[O-])c1)N1CCN(c2ccccc2)CC1	.	-15	-1	-2.2	6%
Cn1cc2c(=O)n(/N=C/c3ccccc3)cnc2n1	-23	4	-2	5.7	2%
CC(=O)Nc1cccc(NC(=O)CSc2nnc3ccc(-c4ccncc4)nn23)c1	.	.	-4	-1.8	.
CCN(CC)C(=O)NC1CC(=O)N(c2ccc(OC)cc2)C1 (configuration not stated)	6	-8	-6	3.7	-7%
NC(=O)c1ccccc1NC(=O)CCN1C(=O)c2ccccc2C1=O	4	4	-3	2.3	-5%
Cc1ccc(NC(=O)CN2CCc3cc4c(cc3C2C)OCCCO4)cc1C (configuration not stated)	.	.	3	14	.
O=C(CSc1ccccn1)Nc1ccc(F)c([N+](=O)[O-])c1	.	-3	-8	-1.6	-3%
COC(=O)c1cccn(CC(=O)c2ccc(Cl)cc2)c1=O	.	4	0	-0.2	0%
O=C(NCc1ccco1)C1CCCN(S(=O)(=O)c2ccc(Cl)cc2)C1 (configuration not stated)	-14	-5	-5	0.6	-2%
O=[N+]([O-])c1cccc(-c2nnc(SCc3cccnc3)o2)c1	.	-6	1	-2.5	-9%
NNc1nc(-c2ccccc2Cl)nc2sc3c(c12)CCCC3	-27	-12	6	-3.2	2%
Cc1cccc(C(=O)N2CCc3cc(-c4nc(NC(=O)CN5CCCC5)sc4C)ccc32)c1	.	.	-2	10.0	.
CCOC(=O)C(C)c1nn(C)c(=O)c2ccccc12 (configuration not stated)	-50	12	4	-0.5	-5%	Arbovirus inh repeat=5
NS(=O)(=O)c1ccc(NC(=O)COc2cccc3ccccc23)cc1	.	.	15	0.8	.
COc1cc2c(cc1OC)C(C)N(C(=O)Nc1cc(C)cc(C)c1)CC2 (configuration not stated)	.	.	5	-1.3	.
COC(=O)c1ccc(S(=O)(=O)N(CCO)Cc2ccccc2)n1C	.	.	-4	1.3	-1%
O=C(CSc1n[nH]c(-c2cccs2)n1)N1CCCCC1	.	.	-4	-3.2	.
Cc1cccc(N2CCN(C(=O)C(C)n3nc(C)n4c(cc5occc54)c3=O)CC2)c1C (configuration not stated)	-39	-28	?	-13	-8%

Entries from the list above that have a nitro group on carbon, in the order listed:
SMILES	YopH inh	Arbovirus inh	Mtb betalactam	RecA intein inh	Mtb growth	others
O=C(c1ccc(Cl)c([N+](=O)[O-])c1)N1CCN(c2ccccc2)CC1	.	-15	-1	-2.2	6%
O=C(CSc1ccccn1)Nc1ccc(F)c([N+](=O)[O-])c1	.	-3	-8	-1.6	-3%
O=[N+]([O-])c1cccc(-c2nnc(SCc3cccnc3)o2)c1	.	-6	1	-2.5	-9%

(more compounds)
SMILES	YopH inh	Arbovirus inh	Mtb betalactam	RecA intein inh	Mtb growth	others
COC(=O)c1sc(-c2cccs2)cc1NC(=O)/C=C/C(=O)O	.	.	-8	42*	-11%
CN(Cc1ccccc1)C(=O)C1CCN(Cc2ccc(F)cc2)CC1	-30	-2	-6	-2.8	-6%
O=C(CCN1C(=O)c2ccccc2C1=O)NCc1ccc(Cl)cc1	.	.	2	-1.3	.
O=C(CSc1nc2nc(-c3cccs3)cc(C(F)(F)F)c2c(=O)[nH]1)C(F)(F)F	.	.	-12	-58	.
Cn1ncc2nnn(-c3ccccc3)c(=O)c21	-24	-1	4	-0.9	8%
COc1ccc(-n2nc3c(c2NC(=O)C2CCCC2)CS(=O)C3)cc1 (configuration not stated)	-54	4	-9	3.2	1%
CCCC1(C(=O)OCC)NC(c2ccc(N(C)C)cc2)C2C(=O)N(c3ccccc3)C(=O)C21 (configuration not stated)	6	2	0	6.0	-5%
COc1cccc(-n2nc3c(=O)n(Cc4ccccc4Cl)nc(C)c3c2C)c1	-25	-18	0	0.2	0%
Cc1ccc(-n2c(SCC(=O)O)nc3sc4c(c3c2=O)CCCC4)cc1	.	2	-6	6.4	-9%
CC(NC(=O)c1cc(-c2ccc(Br)cc2)on1)c1ccccc1 (configuration not stated)	-28	-9	19	-0.9	1%
O=C(Nc1cccnc1)c1ccc2nc(-c3ccccc3)c(-c3ccccc3)nc2c1	.	-27	81	-3.2	?
CCCCc1nc2c(=O)[nH]c3ccccc3c2o1	-8	5	-4	.	-5%
CCN(CC)CCOC(=O)C(Cc1ccco1)Cc1cccc2ccccc12 (configuration not stated)	.	.	-6	0.1	.
Cc1nc2ccc(N=NC3=C(O)CCCC3=O)cc2s1	-7	0	-11	1.3	-1%
Cc1cc(Br)ccc1SCC(=O)Nc1cccnc1	.	6	0	2.2	.
O=C(c1cc(COc2ccc3ncccc3c2)on1)N1CCCC(O)C1 (configuration not stated)	.	9	14	-0.9	-2%
CCC(=O)Nc1ccccc1-c1nc2ccccc2[nH]c1=O	.	.	0	-0.5	.
O=C(COC(=O)c1cccnc1Cl)NCc1ccc2c(c1)OCO2	-14	3	1	-1.6	0%
Cc1ccc(NC(=O)Cn2cncc2-c2ccc([N+](=O)[O-])cc2)cc1C	-18	-6	-7	3.6	.
CC1CCCN(C(=O)CSc2nnc(-c3cccnc3)n2C2CCCCC2)C1 (configuration not stated)	-41	3	9	0.9	-2%
C=CCn1cccc(C(=O)Nc2ccc(OC)cc2)c1=O	.	-2	-4	2.8	0%
Cc1csc(NC(=O)c2nn(C)c(C)c2[N+](=O)[O-])n1	-11	7	8	-4.1	6%
CCCN(CCC)Cc1c(C(=O)N/N=C/c2cccs2)nnn1-c1nonc1N	.	.	11	-3.0	.
CN(CC(=O)Nc1cccc(F)c1)C(=O)CCc1nc2sc3c(c2c(=O)[nH]1)CCCC3	.	.	-6	-1.3	.
CCCc1nc(-c2ccc(-c3ccc(F)cc3)cc2)no1	-38	3	0	1.5	-9%

(list continues)
SMILES	YopH inh	Arbovirus inh	Mtb betalactam	RecA intein inh	Mtb growth	others
Cn1c(SCc2cc(=O)n3cc(Br)ccc3n2)nnc1C1COc2ccccc2O1 (configuration not stated)	0	5	-2	-0.6	-3%
CCN1CCCC1Cn1cnc2c([nH]c3ccc(OC)cc32)c1=O (configuration not stated)	.	.	-10	-1.3	5%
Cc1cc(C)nc(N2CCCC(C(=O)Nc3ccc4nc(C)c(C)nc4c3)C2)n1 (configuration not stated)	19	-3	-11	-3.3	-5%
CCCCCCCCCCCCN1C/C(=C\C(=O)OCC)c2ccccc2S1(=O)=O	.	.	-5	4.7	.
CC1CCN(CCCNC(=O)CCc2nnc3n(CCc4ccccc4)c(=O)c4ccccc4n23)CC1	.	.	1	-1.0	.
Cn1c(SCC(=O)Nc2ccc3c(c2)oc2ccccc23)nnc1-c1ccccc1	-34	-11	97	1.5	94%
NC(=O)c1c(N)sc2c1CCC2	.	-7	.	.	8%
CC1CCC(N2CCN(C(=O)c3ccccc3F)CC2)CC1 (configuration not stated)	.	.	0	1.4	.
O=C(Nc1cccs1)N1CCN(c2ncccn2)CC1	.	.	-2	-0.5	.
CC1CN(C(=S)c2cccc([N+](=O)[O-])c2)CC(C)O1 (configuration not stated)	.	-3	-5	-0.5	-4%
O=C(Nc1ccccn1)c1cccc(S(=O)(=O)N2CCCCC2)c1	1	8	5	6.9	-1%
COc1ccc(C(C(=O)NCC2CCCO2)N(C(=O)CNC(=O)c2cccs2)c2ccccc2C)cc1OC (configuration not stated)	.	4	-5	3.5	-6%
Cc1cc2ncc(S(=O)(=O)c3ccccc3)c(N)n2n1	.	-4	0	1.4	1%
CCOC(=O)C1=C(C)NC(=O)NC1c1cccs1 (configuration not stated)	.	2	-2	2.5	-9%
COC(=O)CSC1=C(C#N)C(c2cccc(OC)c2)CC(=O)N1 (configuration not stated)	-50	-4	5	1.8	7%	Arbovirus inh repeat=-5
COc1ccc(OC)c2sc(N3CCN(c4ccccc4)CC3)nc12	-46	.	2	0.5	-2%
COc1cccc(CCNC(=O)c2cccc(NC(=O)C3=C(C)OCCS3)c2)c1	.	.	3	-0.7	.
O=C(Nc1ccccc1)N(CCCN1CCOCC1)Cc1ccccc1F	-56	19	-15	-4.0	-6%
Cc1ccccc1/C=C1\SC(=S)N(/N=C/c2cc([N+](=O)[O-])ccc2O)C1=O	.	5	0	-3.0	-4%
O=[N+]([O-])c1ccc(Nc2ccccc2)nc1	-26	-8	-3	3.8	7%
Cc1cc(C)c2[nH]c(=O)c(C(c3nnnn3Cc3ccc4c(c3)OCO4)N3CCCCC3)cc2c1 (configuration not stated)	.	.	0	-2.4	0%
Nc1c(C(=O)Nc2nc3ccccc3s2)sc2nc(-c3cccs3)ccc12	-32	-40	8	-7.6	-19%
COc1cccc(C(=O)NCCS(=O)(=O)N2CCC3(CC2)OCCO3)c1	.	.	-3	-0.7	.
COc1ccc(/C=C/C(=O)Oc2ccc(/C=N/NC(=O)COc3c(C)cccc3C)cc2)cc1	-2	0	10	-0.9	10%
O=C(Nc1cccnc1)C1CC(c2ccc(Cl)c(Cl)c2)=NO1 (configuration not stated)	-21	15	9	1.1	-1%

Continuation.
SMILES	YopH inh	Arbovirus inh	Mtb betalactam	RecA intein inh	Mtb growth	others
COC(=O)c1ccc(CN2C(=O)c3ccccc3S2(=O)=O)cc1	-7	5	-7	0.0	-13%
CCN1CCN(c2ccc(NC(C)=O)cc2Cl)CC1	.	1	2	-0.2	-3%
COc1cc(CNC(C)C)ccc1OCC(=O)Nc1cccc2ccccc12	.	.	5	2.1	.
COc1cc(-c2nnc(COC(=O)c3cccn3C)o2)cc(OC)c1OC	.	.	-7	-0.7	.
COc1ccccc1C(=O)N1CCN(Cc2c[nH]c3ccccc23)CC1	.	.	-3	0.4	.
Cc1ccc(NC(=O)CSc2nc(C)c(Cc3ccccc3)c(=O)[nH]2)cc1	.	21	-11	0.6	-2%
CCOC(=O)c1cccc(NC(=O)CCc2nc(-c3ccccc3F)no2)c1	14	7	-6	0.1	67%
CCc1cc2c(=O)c(-c3nc4ccccc4n3C)coc2c(CN2CCCC(C)C2)c1O (configuration not stated)	.	.	?	-4.2	.
CC(OC(=O)c1cc2c(s1)CCCCC2)C(=O)NC(N)=O (configuration not stated)	-13	3	37	0.0	11%
COc1ccc(C(=O)NCC(=O)N2CCN(c3ccccc3)CC2)cc1	.	.	1	-0.6	.
CCCc1nc(C)c(-c2ccc(OC)c(OC)c2)c(=O)[nH]1	-14	-1	-5	-2.0	-7%	Arbovirus inh repeat=0
Cn1c(=O)[nH]c(=O)c2c1ncn2CCN1CCCCC1	-1	6	-11	2.6	-1%
CCOc1ccc(N2C(=O)CC(NC3CCN(C(=O)c4cccc(Cl)c4)CC3)C2=O)cc1 (configuration not stated)	.	.	2	0.1	.
O=C(CNS(=O)(=O)c1ccc(Br)s1)NCc1ccc(F)cc1	.	.	7	-1.5	.
S=c1[nH]c2cc(-c3ccccc3)ccc2o1	.	.	76	-2.0	.
CNC(=O)CSc1nc2nn(-c3ccccc3)c(=O)c-2c2n1CCCCC2	-5	-8	-17	-2.5	1%
COc1ccc(NC(=O)CN2CCCC(C)C2)c([N+](=O)[O-])c1 (configuration not stated)	-33	7	2	2.1	-7%
CC1CCCN(CCCNC(=O)c2ccc3c(c2)N(Cc2ccccc2F)C(=O)c2ccccc2S3(=O)=O)C1 (configuration not stated)	.	.	-1	-1.9	.
CC(C)Sc1nnc([C@H](C)NC(=O)OC(C)(C)C)o1	-35	2	-5	3.6	-8%
CCn1nc(NC(C)=O)c2cc3cccc(C)c3nc21	.	.	5	-19	.

As a short view, part of the list above.
SMILES	YopH inh	Arbovirus inh	Mtb betalactam	RecA intein inh	Mtb growth	others
CCCc1nc(C)c(-c2ccc(OC)c(OC)c2)c(=O)[nH]1	-14	-1	-5	-2.0	-7%	Arbovirus inh repeat=0
Cn1c(=O)[nH]c(=O)c2c1ncn2CCN1CCCCC1	-1	6	-11	2.6	-1%
CCOc1ccc(N2C(=O)CC(NC3CCN(C(=O)c4cccc(Cl)c4)CC3)C2=O)cc1 (configuration not stated)	.	.	2	0.1	.
O=C(CNS(=O)(=O)c1ccc(Br)s1)NCc1ccc(F)cc1	.	.	7	-1.5	.
S=c1[nH]c2cc(-c3ccccc3)ccc2o1	.	.	76	-2.0	.

These rows are one share of the data (hit frequency here may not be typical).
